Source: PubChem BioAssay (National Center for Advancing Translational Sciences (NCATS))
PINK1 modulator: A Quantitative High throughput Screen to Identify Chemical Modulators of PINK1 Expression. Potency, µM (series often up to 76.6 µM), for inactives: top-dose activation (PINK1 increase), hits mostly activators. PINK1 immunofluorescence, high-content cytometry, 24 h. actives 0.2% (n = 410,000); active = well fitted activation curve with a large enough effect; inconclusive = small, poorly fitted or top-dose-only effect; inactive = flat fitted curve, though single readings scatter; cell line not stated here;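 further: potency means the concentration at half of the fitted maximal effect; % of control where 0% means no effect; nearly all actives have a fitted effect of over 65% in size; a mitochondrial uncoupler was the plate control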
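PINK1 protein level read as immunofluorescence by microplate cytometer in a fixed, stained stable cell line after 24 h exposure to five compound concentrations, with CCCP as control.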
gsp antagonist: qHTS for Antagonists of gsp, the Etiologic Mutation Responsible for Fibrous Dysplasia/McCune-Albright Syndrome: qHTS; gsp-mutant cells, cAMP HTRF, 30 min; control for the full effect not named in the record; Potency, µM (top dose mostly 76.9 µM), inactives show at the highest dose activity change, negative = inhibition, most hits filed as inhibitors; actives 0.4% (n = 340,000); AID 624288, 2012; active = falling curve of any shape with a large fitted effect; inconclusive = falling curve, mostly with a smaller effect; inactive = flat or rising curve; cell line not stated here;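 further: intracellular cAMP measured with PDE inhibitor Ro 20-1724 present during compound exposure; potency means the concentration at half of the fitted maximal effect; on the % scale 0 is the no-effect control and ±100 the full control effect; nearly all actives have a fitted effect of over 65% in size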
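G418-selected cells were plated in DMEM/10% FBS for 16-24 h at 37C, then treated with compounds plus the PDE inhibitor […] (300 uM solution added) for 30 min at 37C. Intracellular cAMP was measured by HTRF after 30 min lysis at room temperature.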
D2 agonist: Beta-Arrestin HTS for Positive Allosteric Modulators of the Human D2 Dopamine Receptor: Agonists; activation, % (no concentration beside the values); DiscoveRx PathHunter D2 beta-arrestin, luminescence, 90 min; 100% = 57 uM dopamine signal; actives 0.084% (n = 360,000); in the data active = activation above about 40%; inconclusive = about 15% to 40%; inactive = below about 15%; further: compound concentration not given in the record; the text of the record calls up to 30% inactive
Target sequence (P14416 whole entry, looked up): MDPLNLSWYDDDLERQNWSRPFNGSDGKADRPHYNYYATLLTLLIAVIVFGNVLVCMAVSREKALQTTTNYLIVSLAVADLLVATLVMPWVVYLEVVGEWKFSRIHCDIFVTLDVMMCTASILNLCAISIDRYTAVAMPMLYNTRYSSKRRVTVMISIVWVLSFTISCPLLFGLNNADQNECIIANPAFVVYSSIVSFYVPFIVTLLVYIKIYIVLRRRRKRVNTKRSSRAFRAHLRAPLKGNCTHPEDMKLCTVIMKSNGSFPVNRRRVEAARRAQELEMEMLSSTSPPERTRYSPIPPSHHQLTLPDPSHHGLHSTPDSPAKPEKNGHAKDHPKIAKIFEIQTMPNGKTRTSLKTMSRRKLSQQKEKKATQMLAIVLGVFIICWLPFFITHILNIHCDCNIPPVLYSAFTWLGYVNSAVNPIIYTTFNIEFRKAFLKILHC
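Agonist mode: compounds alone added to overnight-plated D2 PathHunter cells for 90 min at 37 C, with 57 uM final dopamine (EC100) defining full response. Beta-arrestin recruitment detected by chemiluminescent reagent, read after 1 h at ambient temperature.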
Menin MLL FP FL: qHTS Assay for Inhibitors Targeting the Menin-MLL Interaction in MLL Related Leukemias: Competition With Fluorescein Labeled MLL-derived Peptide | Fluorescence polarization, fluorescein-MLL peptide displacement from menin | AID 1766, 2009 | 290,000 tested, under 10 active | FP activity change, % at 61.4 µM; inconclusive = falling polarisation curve, or a change in total fluorescence; inactive = total fluorescence flat and polarisation flat or rising; no compound was filed as active; the % refers to the polarisation; negative = inhibition;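 further: % of control where 0% means no effect; inhibitors lower the polarisation; unlabelled MLL peptide was the positive control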
Sfp inh: qHTS Assay for Inhibitors of Bacillus subtilis Sfp phosphopantetheinyl transferase (PPTase) | 4'-phosphopantetheinyl transferase ffp (Bacillus subtilis), Q9F4F7 | Biochemical Sfp PPTase activity, qHTS | Potency, µM, for inactives: max response, negative = inhibition, usual class: inhibitors | actives 3.5% (n = 310,000) | AID 1490, 2009; active means well fitted inhibition curve with a large enough effect; inconclusive means small, poorly fitted or top-dose-only effect, or another doubt; inactive means no such curve, though single readings can be large or run the other way;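 further: the enzyme is Sfp with the accession as filed and its product quenches rhodamine fluorescence; potency means the concentration at half of the fitted maximal effect; 0% = enzyme reaction without inhibitor and -100% = no enzyme wells; top concentration of the series not given in the record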
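Sfp 15 nM + cpd, 15 min RT; start w/ rhodamine-CoA 5 uM, BHQ-2-YbbR 12.5 uM (final); 50 mM Hepes pH 7.6, 10 mM MgCl2, 0.01% NP-40, 0.01% BSA; read 525/598 nm at 0 and 30 min.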
gsp ag: qHTS for Agonist of gsp, the Etiologic Mutation Responsible for Fibrous Dysplasia/McCune-Albright Syndrome: qHTS | gsp mutant cells, cAMP HTRF, 30 min; control for the full effect not named in the record | Potency, µM (doses to about 76.9 µM), without a hit: at the top dose activation (cAMP increase), usual class: activators | actives 0.13% (n = 340,000); active = well fitted activation curve with a large enough effect; inconclusive = small, poorly fitted or top-dose-only effect, or another doubt; inactive = no such curve, though single readings can be large or run the other way; cell line not stated here;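 further: phosphodiesterase inhibitor Ro 20-1724 added with compounds to block cAMP breakdown; potency means the concentration at half of the fitted maximal effect; nearly all actives have a fitted effect of over 60% in size; about a fifth of the inactives were tested at one dose only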
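Cells stably selected in G418 were plated at 2000/well, grown 16-24 hr, then given compounds in DMSO with the PDE inhibitor […] (300 uM solution added) for 30 min at 37C; cAMP was read by HTRF.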
ClpP mod: qHTS Assay for Activators of ClpP; purified B. subtilis ClpP, FRET peptide cleavage, 20 min; Potency, µM (titrated, usually from 57.5 µM), for inactives: top-dose activity change, negative = active; actives 1.9% (n = 340,000); AID 651965, 2013; active = well fitted falling curve with a large enough effect; inconclusive = small, poorly fitted or top-dose-only effect; inactive = no such curve, though single readings can be large or run the other way; further: potency means the concentration at half of the fitted maximal effect; the source files actives as falling curves though it sought activators and does not explain the sign; nearly all actives have a fitted effect of over 65% in size; many hits overshoot -100%
Target sequence (P80244 whole entry, looked up): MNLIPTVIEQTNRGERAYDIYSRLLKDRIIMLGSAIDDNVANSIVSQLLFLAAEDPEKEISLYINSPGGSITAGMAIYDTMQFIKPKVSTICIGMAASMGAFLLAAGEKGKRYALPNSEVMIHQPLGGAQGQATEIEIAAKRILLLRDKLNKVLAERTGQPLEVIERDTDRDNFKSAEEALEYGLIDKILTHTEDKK
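FRET quenching reversal measured ClpP activation: 10 microg/mL B. subtilis ClpP at pH 8 with the FRET-FV decapeptide, read at 430 nm after 320 nm excitation. The 20-min minus 0-min signal was scaled between DMSO/no-enzyme wells and ADEP (5.8 microM final).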
Numbers without * were called inactive; u = inconclusive; x = not tested or not shown; [ ] = another dose, or the depositor's remark.

Molecule	PINK1 modulator	Sfp inh	D2 agonist	Menin MLL FP FL	ClpP mod	gsp antagonist	gsp ag
O=S(=O)(Cc1cc(-c2ccc(Cl)cc2)no1)c1ccccc1	16%	20%	-4.3	2.1	0.9%	6%	u
CN1/C(=C/C=C(C#N)C#N)C(C)(C)c2ccccc21	13%	-13%	-1.7	u	-3.9%	2%	u
Cc1cc(C=C2C(=O)c3ccccc3C2=O)c(C)n1-c1cccc(C(=O)O)c1	0.9%	0%	-3.0	u	2.2%	u	-42%[inhibitor]
COc1ccc(CCNC(=O)c2cccc3ccccc23)cc1OC	2.8%	14%	-0.5	-2.6	0.7%	11%	-26%
Oc1cccc2c(NC(=S)Nc3ccc(SC(F)F)cc3)cccc12	21%	u	u	9.3	4.4%	-4%	2%
COc1ccc(C2C(C(=O)c3ccc(C)o3)=C(O)C(=O)N2CC2CCCO2)cc1OC (centres undefined)	2.1%	-7%	1.4	x	-0.5%	16%	18%
Cc1cc(C)nc(SCc2ccc(C(=O)N/N=C/c3ccc(C(=O)O)cc3)cc2)n1	1.7%	11%	-1.1	7.0	x	-1%	-7%[15.4 µM]
Cc1ccc(NC(=O)CSCC(=O)OC(C)C(=O)Nc2ccccc2C)cc1 (centres undefined)	1.7%	x	-4.8	x	1.3%	-9%	u
COc1ccc(Nc2cc(C)nc3ncnn23)cc1Cl	3.8%	4%	-1.1	u	1.0%	-11%	-4%[15.4 µM]
CC(NS(=O)(=O)c1ccc([N+](=O)[O-])cc1)C(=O)NN (centres undefined)	0.9%	8%	8.0	-1.6	-0.4%	10%	14%
CCOc1cc(/C=N/NC(=O)CN2CCCCC2)ccc1O	-0.2%	15%	0.9	5.4	0.1%	-3%	15%[15.4 µM]
Cc1cc(NS(=O)(=O)c2ccc(NC(=O)Cc3cccs3)cc2)no1	1.8%[38.3 µM]	18%	-2.5	-0.6	-1.6%	3%	-4%
COc1ccc(C(=O)C2CCCN(C(=O)c3cccnc3OC)C2)cc1F (centres undefined)	0.9%	u	-1.4	0.7	x	8%	-7%[15.4 µM]
O=C(Nc1nnc(COc2ccccc2F)s1)Nc1ccccc1F	3.1%	2%	4.1	-1.9	x	-12%	-29%
Cc1sc2ncnc(N3CCC(C(=O)Nc4nnc(CC(C)C)s4)CC3)c2c1C	u	x	-2.1	x	x	-17%	16%[15.4 µM]
COc1ccc([C@@H]2CC(=O)c3c(O)cc(O[C@@H]4O[C@H](CO[C@@H]5O[C@@H](C)[C@H](O)[C@@H](O)[C@H]5O)[C@@H](O)[C@H](O)[C@H]4O)cc3O2)cc1O	2.8%	-1%	0.1	-7.7	0.5%	3%	x
CC(C)C(=O)NCCc1nc(-c2ccc(Cl)cc2)no1	-0.9%	x	-2.3	x	-0.7%	8%	4%
CCCCn1c(-c2csc3ccccc23)n[nH]c1=S	1.4%	3%	-1.6	-2.4	0.0%	13%	-8%
O=C(COC(=O)C1CC(=O)N(Cc2ccccc2)C1)Nc1cccc([N+](=O)[O-])c1 (centres undefined)	0.2%	x	-2.6	x	1.4%	0%	-11%
Cc1noc(C)c1C(=O)NCc1ccco1	2.4%[38.3 µM]	14%	-3.6	1.4	-0.6%	7%	15%

Arranged by the number under Menin MLL FP FL (highest first): three from the list above.
smiles | PINK1 modulator | Sfp inh | D2 agonist | Menin MLL FP FL | gsp antagonist | gsp ag
Cc1noc(C)c1C(=O)NCc1ccco1 | 2.4%[38.3 µM] | 14% | -3.6 | 1.4 | 7% | 15%
Cc1cc(NS(=O)(=O)c2ccc(NC(=O)Cc3cccs3)cc2)no1 | 1.8%[38.3 µM] | 18% | -2.5 | -0.6 | 3% | -4%
CCCCn1c(-c2csc3ccccc23)n[nH]c1=S | 1.4% | 3% | -1.6 | -2.4 | 13% | -8%

Further results follow:
Molecule	PINK1 modulator	Sfp inh	D2 agonist	Menin MLL FP FL	ClpP mod	gsp antagonist	gsp ag
CS(=O)(=O)N1CCc2cc(NC(=O)c3ccc(Cl)cc3Cl)ccc21	-0.7%	9%	-0.6	2.9	x	-6%	4%[15.4 µM]
O=C(CCl)NCCN1C(=O)S/C(=C\c2cccnc2)C1=O	18%	3%	-4.7	2.3	x	-1%	21%
CC(=O)N1CCN(S(=O)(=O)c2cccc(C(=O)NNC(=O)c3ccc(Br)cc3)c2)CC1	1.5%	x	-2.1	x	0.1%	2%	-6%
C[C@H](O)[C@@H]1C(=O)N2CCc3c([nH]c4ccccc34)[C@@H]2C[C@@H]1N(C)C(=O)Nc1ccccc1	1.6%	x	-0.3	x	u	x	u
Cc1nn(-c2ccccc2)c2c1C(c1cccc([N+](=O)[O-])c1)N(c1ccccc1)C(=O)N2 (centres undefined)	1.2%	0%	-1.4	4.7	0.9%	0%	-9%
CCc1c(C)nc(N)n2c(SCC(=O)Nc3ccccc3OC)nnc12	2.1%[38.3 µM]	-4%	-1.3	2.3	-0.1%	0%	27%
CCOc1ncccc1C(=O)N1CCN(S(=O)(=O)c2ccc3ccccc3c2)CC1	1.9%	15%	0.9	0.7	-1.3%	1%	7%
C=CCN1CC(C)/C(=N\O)CC1C (centres undefined)	1.9%	10%	-3.3	5.8	x	6%	-9%[15.4 µM]
Cn1cccc1C(=O)OCc1cc(Cl)cc2c1OCOC2	1.3%	71µM*	-3.0	4.7	0.2%	u	5%
O=C(c1cc(O)c(O)c([N+](=O)[O-])c1)c1ccccc1F	1.1%	x	-7.4	5.8	-0.8%	u	x

Reprinted at random: 3 records from the list, in no set order.
Molecule	PINK1 modulator	Sfp inh	D2 agonist	Menin MLL FP FL	ClpP mod	gsp antagonist	gsp ag
C[C@H](O)[C@@H]1C(=O)N2CCc3c([nH]c4ccccc34)[C@@H]2C[C@@H]1N(C)C(=O)Nc1ccccc1	1.6%	x	-0.3	x	u	x	u
O=C(c1cc(O)c(O)c([N+](=O)[O-])c1)c1ccccc1F	1.1%	x	-7.4	5.8	-0.8%	u	x
CS(=O)(=O)N1CCc2cc(NC(=O)c3ccc(Cl)cc3Cl)ccc21	-0.7%	9%	-0.6	2.9	x	-6%	4%[15.4 µM]

The results go on.
Molecule	PINK1 modulator	Sfp inh	D2 agonist	Menin MLL FP FL	ClpP mod	gsp antagonist	gsp ag
COc1ccc(C(=O)CSc2nc3nn(-c4ccccc4)c(=O)c-3c3n2CCCCC3)c(OC)c1	5.4%	x	-3.5	x	-1.0%	x	-1%
CC[N+](CC)(CCCCS(=O)(=O)[O-])CCNP1(=O)C=C(c2ccccc2)OC(c2ccccc2)=C1	0.3%	14%	-18	-4.9	0.9%	25%	u
COCCCNC(=O)c1ccc2c(=O)n(Cc3ccccc3OC)c(=S)[nH]c2c1	3.9%	-6%	0.7	1.1	0.0%	-16%	33%
COc1ccccc1/C=C/C=N/NC(=O)c1ccncc1	3.4%	-5%	6.3	-0.1	x	-19%	-51%[inhibitor]
CCc1ccc(NC(=O)C2CCN(S(=O)(=O)c3cccs3)CC2)cc1	-0.8%	8%	-1.8	-3.6	x	-1%	u
CCN(C(=O)COC(=O)c1ccccc1NCc1ccco1)c1c(N)n(Cc2ccccc2)c(=O)[nH]c1=O	1.9%	x	11	x	3.9%	-10%	1%
CCOc1ccc(NC(=O)CSC2=NN3CCCC(=O)N=C3S2)cc1	-1.5%	14%	4.7	-0.8	0.6%	-5%	44%
CC(=O)N(c1ccccc1)c1nc(/C=C/C(=O)O)cs1	-2.3%	12%	-1.7	-5.9	x	-3%	-39%[inhibitor]
O=C(O)/C(=C\c1ccco1)NC(=O)c1ccco1	1.1%	12%	-4.9	2.2	0.8%	4%	-17%
Cn1c(/C(C#N)=C2/CCCCCN2)nc2ccccc21	1.8%	-3%	3.5	2.0	-3.5%	-4%	-17%
O=S1(=O)CC(N2CCCC2)CN1Cc1ccccc1 (centres undefined)	0.8%	x	-2.9	x	-0.6%	x	x
Cn1c(=O)[nH]c(=O)c2c1nc(N1CCOCC1)n2CCc1ccccc1	-2.9%	16%	2.9	-1.5	x	3%	17%
COc1ccc2c(c1)-c1c(sn(-c3ccc(OC)c(OC)c3)c1=S)C(C)(C)N2	9.0%	-6%	-6.6	2.5	-0.9%	-4%	-35%[inhibitor]
COc1ccc(C(NC(=O)c2ccccc2F)NC(=O)c2ccccc2F)cc1	-0.9%	5%	-5.6	2.2	-0.5%	7%	6%[15.4 µM]
CCN1CCN(C(=O)C2CCN(S(=O)(=O)c3ccc4c(c3)NC(=O)C(C)S4)CC2)CC1 (centres undefined)	0.0%	10%	1.6	x	-3.5%	6%	u
COc1ccccc1-n1c(=S)[nH]c2c(sc(=S)n2-c2ccccc2)c1=O	1.2%	13%	-2.1	0.4	0.9%	-12%	-36%[inhibitor]
Cc1cc(Cl)ccc1OCC(=O)NC(=S)Nc1ccccc1N1CCOCC1	12%	10%	-4.5	0.8	2.5%	23%	-1%
COc1ccc(NC(=O)CSc2nnc(Cn3c(=O)sc4ccccc43)n2C)cc1	-2.7%	4%	0.4	0.1	-0.9%	-1%	-20%
N#Cc1ccc(OCC(O)CN2CCN(c3ncc(C(F)(F)F)cc3Cl)CC2)cc1 (centres undefined)	7.4%	5%	3.1	-1.5	x	-4%	14%
CNc1cncc(-c2cccnc2)n1	1.7%	x	-0.4	x	4.7%	x	x
CC(C)(C)OC(=O)NCCC(=O)N/N=C/c1ccc2nccnc2c1	-1.7%	4%	-4.1	-1.8	x	-5%	15%[15.4 µM]
C[C@H](CO)N1C[C@H](C)[C@@H](CN(C)C(=O)Nc2ccc(C(F)(F)F)cc2)Oc2c(NC(=O)Nc3ccc(C(F)(F)F)cc3)cccc2C1=O	u	x	3.5	x	4.2%	u	x
Cc1ccc(-c2csc(N3CCN(c4ccc5nc(-c6ccncc6)n(CCN6CCCCC6)c5c4)CC3)n2)cc1	4.1%	56µM*	-2.6	u	-10%	-9%	x
